Vif TR-FRET = inhibitors of Vif binding to APOBEC3G peptide, primary screen, biochemical, TR-FRET, GST-Vif 1-94, biotin-A3G peptide, dose response retest (AID 1117319) | Virion infectivity factor (Human immunodeficiency virus type 1 group M subtype B (isolate … | TR-FRET GST-Vif / biotin-A3G peptide binding; higher % means a stronger effect; test concentration not given here; strong numbers were not always called active | one-dose inhibition, %; IC50 in µM for titrated hits | 0.57% of 260,000 active;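 active means above the screen mean plus three standard deviations and confirmed in dose response; inconclusive means results disagree or hit not tested in dose response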;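 further: Vif residues 1-94 fused to GST binding biotinylated APOBEC3G peptide 110-148; 0% = full assay without inhibitor and 100% = GST in place of GST-Vif; retest series ran down from 100 µM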
HNF4A DNA FP = change in binding of human HNF4A to DNA, primary screen, biochemical, fluorescence polarization, FITC-DNA; Hepatocyte nuclear factor 4-alpha (Homo sapiens), P41235; 1 h; activity change, % at 10 µM; 0.3% of 360,000 active; AID 1224865, 2016; in the data active means activity change above about 30%, passing the limit was not always enough;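 further: controls were the assay level and a saturating level of protein; the project sought stronger binding though the title names inhibitors; some compounds called inactive have numbers as strong as hits; positive values seem to mean higher polarization but the record does not say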
FGF22 binding = binders of human FGF22 protein, primary screen, FGF22 synaptogenesis inhibitor project, biophysical, thermal shift, single point; 1.5% of 340,000 active; recombinant FGF22 thermal shift, SYPRO orange fluorescence; percent of sucrose octasulfate shift, DMSO zero; AID 651658, 2012; calls only at 9.99 µM; Fibroblast growth factor 22 (Homo sapiens), Q9HCT0;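 active means melting point raised past a set limit in the mean and every replicate; inconclusive means no clear call; three in four hits are not shown here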
Target sequence (Q9HCT0 whole entry, looked up): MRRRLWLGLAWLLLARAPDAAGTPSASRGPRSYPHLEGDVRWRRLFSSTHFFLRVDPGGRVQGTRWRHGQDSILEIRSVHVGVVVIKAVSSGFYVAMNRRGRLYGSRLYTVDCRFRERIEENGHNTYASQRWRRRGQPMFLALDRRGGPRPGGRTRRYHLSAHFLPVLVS
MLL AF4-AF9 inh = inhibitors of AF4 peptide binding to AF9, primary screen, biochemical, AlphaScreen, biotin-AF4 peptide, FLAG-AF9, single point | Protein AF-9 (Homo sapiens), P42568 | inhibition, % at 10 µM | 0.47% of 350,000 active;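 active means every replicate reaching a set inhibition limit, whatever the replicate mean, cut at about 25% in these data; inconclusive means mean inhibition reaches that limit but some replicates miss it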;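 further: 0% = plate neutral control median and 100% = total signal loss; the record names both 10 and 1 µM as test concentration; the first replicate is given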
Target sequence (P42568 whole entry, looked up): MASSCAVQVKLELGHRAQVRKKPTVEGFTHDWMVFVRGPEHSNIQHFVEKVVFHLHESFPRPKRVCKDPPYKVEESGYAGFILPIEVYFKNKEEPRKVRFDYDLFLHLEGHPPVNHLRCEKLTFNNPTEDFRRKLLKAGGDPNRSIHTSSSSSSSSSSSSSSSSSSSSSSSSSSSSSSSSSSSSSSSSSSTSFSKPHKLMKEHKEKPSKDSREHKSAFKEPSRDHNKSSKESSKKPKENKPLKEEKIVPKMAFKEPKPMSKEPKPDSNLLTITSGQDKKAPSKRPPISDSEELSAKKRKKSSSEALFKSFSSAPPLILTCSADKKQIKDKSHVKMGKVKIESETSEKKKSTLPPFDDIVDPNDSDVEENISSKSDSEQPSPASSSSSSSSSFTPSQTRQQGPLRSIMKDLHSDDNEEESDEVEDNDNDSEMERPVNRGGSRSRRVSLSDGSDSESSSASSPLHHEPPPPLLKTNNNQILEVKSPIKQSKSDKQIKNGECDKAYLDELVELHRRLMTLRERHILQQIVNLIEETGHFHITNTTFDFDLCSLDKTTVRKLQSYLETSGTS
rRNA inh HTS = reduced GFP signal of wild-type E. coli, primary screen, bacterial rRNA inhibitor project, GFP/RFP fluorescence, OD600, single point | E. coli WT GFP vs humanized-ribosome RFP mutants, 24 h; active compounds read low; DMSO median 0, no signal -100 | GFP signal change (wild-type ribosome), % (no concentration beside the values) | 1.6% of 350,000 active;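 active means significant combined selectivity score with lowered wild-type GFP, culture density cut under 30%, mutant RFP and density less affected; inactive means any of these conditions unmet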; further: one replicate is shown; some compounds called inactive have numbers as strong as hits
E coli growth = E. coli growth inhibition, primary screen, OD600 | OD600 absorbance (no concentration beside the values) | 0.21% of 330,000 active | Escherichia coli growth, 23 h; active compounds read low;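 active means OD600 absorbance below the run mean of sample wells minus 3.6 SD, in any replicate, cut at about 0.56 in these data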;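 further: stock transfer was 300 nL into about 60 µL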
ALR H2O2 inh = inhibitors of human ALR sulfhydryl oxidase, primary screen, biochemical, H2O2 detection, HRP-luminol luminescence, single point; FAD-linked sulfhydryl oxidase ALR (Homo sapiens), P55789; purified ALR, DTT oxidation; inhibition, % (test concentration not listed); 3.8% of 290,000 active;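 active means mean and each replicate at 75% or more; inconclusive means only one of the two met; inactive means neither met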;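 further: stock transfer was 7.5 nL into about 7.5 µL; 0% = neutral wells and 100% = wells with inactivated enzyme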
Target sequence (P55789 whole entry, looked up): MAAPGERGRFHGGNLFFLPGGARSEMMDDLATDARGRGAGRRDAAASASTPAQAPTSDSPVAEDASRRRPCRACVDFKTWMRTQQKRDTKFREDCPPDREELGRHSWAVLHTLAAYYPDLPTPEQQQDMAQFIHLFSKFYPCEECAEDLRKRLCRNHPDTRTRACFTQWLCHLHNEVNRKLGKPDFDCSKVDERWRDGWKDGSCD
rRNA inh HTS OD600 = further read-out of rRNA inh HTS, marked with its call; OD600 change, %; measured here: OD600 growth;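 optical density of the mix in the first replicate; 0 = DMSO median and -100 = no signal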
rRNA inh HTS RFP = recorded beside rRNA inh HTS, whose call it bears; RFP signal change, %; measured here: RFP humanized mutant strains;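 first replicate; 0 = DMSO median and -100 = no signal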
Active calls of the source: *; i = inactive; ? = inconclusive; . = no result given; & = joins results of further samples.

Every second line gives: MLL AF4-AF9 inh | ALR H2O2 inh | rRNA inh HTS | E coli growth | rRNA inh HTS OD600 | rRNA inh HTS RFP | HNF4A DNA FP | Vif TR-FRET | FGF22 binding
Cc1ccc2nc(NC(=O)CSCC(=O)OCC(=O)c3ccccc3)sc2c1
    . | 19 | . | 0.66 | . | . | -0.5 | -9% | .
O=C(O)C1CC(=O)N(Cc2ccc3c(c2)OCO3)C1 (centres undefined)
    -13 | -27 | . | 0.68 | . | . | 0.8 | -2% | i
CC1(C)OC(=O)C2=C(C[C@@H](C3CCCCC3)O[C@H]2c2ccc(Cl)cc2)O1
    -6.4 | . | . | . | . | . | -3.2 | . | i
COCC(=O)N1CCCCN2[C@H](C1)[C@H](c1ccc(-c3ccc(C)cc3)cc1)[C@@H]2CO
    7.2 | . | 1 | . | -13 | -0.3 | . | . | i
NC(=O)c1cc([N+](=O)[O-])c(Cl)cc1NCc1ccncc1
    7.5 | -16 | 5 | 0.69 | 7 | 1.6 | -3.4 | . | i
CCCNC(=O)C[C@H]1CC[C@@H]2[C@H](COc3ccc(NC(=O)c4cccc(Cl)c4)cc3C(=O)N2C)O1
    -0.2 | . | -2 | . | 3 | 0.4 | . | . | i
Cc1noc(C)c1NC(=O)Nc1ccc2c(c1)C(=O)N(C)[C@@H]1CC[C@H](CC(=O)N[C@H]3CCN(Cc4ccccc4)C3)O[C@@H]1CO2
    2.0 | . | 6 | . | 20 | 0.0 | . | . | i
C[C@H](CO)N1C[C@H](C)[C@H](CN(C)C(=O)Nc2cccc3ccccc23)OCCCC[C@H](C)Oc2ccc(NC(=O)C3CCCCC3)cc2C1=O
    -4.7 | . | 4 | . | -1 | 6.6 | . | . | i
Cc1ccc(-c2ccc(C(=O)NCc3ccccc3)o2)c2ccccc12
    3.0 | . | 0 | 0.7 | -2 | -6.9 | 10 | -5% | i
CCN(CC)C(=O)c1cccc(NC(=O)C2CCN(C(=O)c3cccs3)CC2)c1
    -1.9 | -12 | 0 | 0.73 | 1 | 0.8 | 1.9 | -6% | i
CCOC(=O)c1ccc(NS(=O)(=O)c2cc3c4c(c2)CCN4C(=O)CC3)cc1
    -14 | 1 | 4 | 0.68 | -6 | 4.1 | -3.2 | 1% | i
O=C(O)Cn1c(=O)c2cccn2c2ccccc21
    -1.0 | -7 | 0 | 0.69 | 2 | 3.7 | -5.7 | -8% | i
COc1cccc(-c2c(-c3cc(OC)cc(OC)c3)n(C)c3ccc(-c4cccc5[nH]ccc45)cc23)c1
    . | -1 | . | 0.66 | . | . | 6.3 | . | .
CCCNC(=O)C[C@@H]1CC[C@H]2[C@@H](COc3ccc(NC(=O)c4cccc(C(F)(F)F)c4)cc3C(=O)N2C)O1
    0.7 | . | 0 | . | -2 | 2.3 | . | . | i
COCCN(C(=O)COC(=O)c1ccc(C)o1)c1c(N)n(Cc2ccccc2)c(=O)[nH]c1=O
    12 | . | 5 | . | 11 | -3.4 | -3.0 | . | i
CN(C)CCOC(c1ccc(Cl)cc1)c1ccccn1 (centres undefined)
    -1.4&-1.3 | 7 | . | . | . | . | 1.4&2.5 | -4% | i
CCCCOc1ccc(C(=O)NCC(=O)NNC(=O)C2COc3ccccc3O2)cc1 (centres undefined)
    0.9 | 1 | 4 | 0.73 | 13 | 0.8 | -2.3 | -8% | i
Cc1cccc(C)c1N(CC(O)Cn1c2ccccc2c2ccccc21)S(C)(=O)=O (centres undefined)
    . | -8 | . | 0.66 | . | . | -3.8 | 5% | .
O=C(Nc1cccc(C(F)(F)F)c1)c1ccc(N2CCNCC2)c([N+](=O)[O-])c1
    8.7 | -7 | -20 | 0.62 | -15 | -1.2 | -2.3 | 19% | i
COc1cccc(N2CC(O)Cn3c2nc2c3c(=O)n(CCCc3ccccc3)c(=O)n2C)c1 (centres undefined)
    . | 1 | . | 0.76 | . | . | -1.1 | 0% | .
Cc1ccc(-c2nc(CS(=O)CC(=O)N3CCN(c4ncccn4)CC3)c(C)o2)cc1 (centres undefined)
    -3.4 | . | -4 | . | -6 | 0.3 | 2.7 | -4% | i
COc1ccc(N(CC(=O)Nc2ccc(C)c(C)c2)S(=O)(=O)c2c(C)n[nH]c2C)cc1
    . | 0 | . | 0.69 | . | . | 1.3 | 14% | .
CCC(=O)N1[C@@H](CO)[C@H](c2ccc(-c3cccnc3)cc2)[C@@H]1CN(CC)C(C)=O
    -1.5 | . | 0 | . | -2 | -2.3 | . | . | i
CO[C@@H]1CN(C)C(=O)c2ccc(NC(=O)C3CCC3)cc2OC[C@@H](C)N(Cc2nccs2)C[C@@H]1C
    2.0 | . | -7 | . | 2 | -0.5 | . | . | i
Cc1ccc2cc(C)c(SCC(=O)NCc3ccco3)nc2c1
    -21 | 14 | -24 | 0.65 | -43 | -6.3 | -2.1 | . | i
COc1cccc(NC(=O)c2ccccc2OCc2c(C)noc2C)c1
    -83 | . | -15 | 0.68 | -24 | -0.5 | 0.3 | 4% | i
CC(Sc1nc(N)cc(=O)[nH]1)C(=O)Nc1nc2c(s1)CCCC2 (centres undefined)
    0.0 | 12 | 4 | 0.7 | 4 | -0.5 | -2.4 | . | i
O=C1Cc2cc(S(=O)(=O)N3CCCCC3)ccc2N1
    2.4 | . | -2 | 0.79 | 7 | -1.4 | 0.9 | . | i
COC(=O)[C@]12CCCCC=C1N(Cc1ccc(Cl)cc1Cl)C(=O)[C@H](CC(=O)N1CCCCC1)C2
    3.1 | . | -3 | . | -6 | -0.4 | -0.3 | . | i
CCc1ccc(NC(=O)CSc2nc(CSc3ccc(C)cc3)cc(=O)[nH]2)cc1
    -3.2 | 4 | 3 | 0.65 | 2 | 5.6 | -3.2 | ? | i
O=S(=O)(c1ccc(-c2csc(Nc3ccc(Br)cc3)n2)cc1)N1CCCC1
    . | . | . | 0.75 | . | . | 2.7 | 14% | .
CCCCOc1ccc(NC(=O)C(=O)NCCC2=CCCCC2)cc1
    . | -3 | . | 0.74 | . | . | -2.9 | 1% | .
COc1ccc(S(=O)(=O)N2C[C@H]3CON(C)[C@H]3C[C@H]2c2ccc(-c3cc4ccccc4o3)cc2)cc1
    -1.7 | . | -2 | . | 10 | -3.0 | 2.1 | . | i
COc1ccc(CN(C)C[C@@H]2OCCCC[C@@H](C)Oc3ccc(NC(=O)Nc4ccc(F)cc4)cc3C(=O)N([C@H](C)CO)C[C@H]2C)cc1
    13 | . | -33 | . | -46 | 36 | . | . | i
Cc1cccc(C(=O)NCc2nnc3c4ccccc4c(-c4ccccc4)nn23)c1
    -1.4 | 9 | -4 | 0.69 | -4 | -2.4 | -2.4 | . | i
CCCc1c(C(=O)OCC)sc(N)c1C#N
    -1.5 | -5 | 11 | 0.69 | -9 | -2.9 | 9.1 | -7% | i
COc1ccccc1NC(=O)C1CCN(c2ncccn2)CC1
    . | -7 | . | 0.68 | . | . | 1.0 | -2% | .
CC(=O)CCc1c(C)[nH]c2ccccc2c1=O
    4.2 | -12 | 8 | 0.7 | 8 | 3.0 | 3.2 | 3% | i
C[C@@H]1CN([C@H](C)CO)C(=O)c2cc(C#CC3(O)CCCC3)cnc2O[C@H]1CN(C)C(=O)Cc1cccnc1
    -3.3 | . | 3 | . | 11 | -2.1 | . | . | i
COc1ccc2c3c(n(C)c2c1)[C@@H](CO)NCC31CCN(Cc2ccccc2F)CC1
    20 | . | 2 | . | 1 | -0.3 | . | . | i
OCCN1CCOCCOc2ccccc2OCCOCC1
    1.2 | -8 | 0 | 0.66 | 3 | -3.7 | -0.7 | 8% | i
CC(=O)OCCN(Cc1ccccc1)Cc1ccc2c(c1)OCO2
    . | -6 | . | 0.7 | . | . | -1.2 | 7% | .
Cc1cccc(C(=O)NNC(=O)CCC(=O)Nc2cccc(Cl)c2C)c1
    . | -7 | . | 0.71 | . | . | 1.6 | . | .
COc1cc2c(cc1OC)C(C(=O)N(C)Cc1ccccc1)C(c1cccnc1)N(C)C2=O (centres undefined)
    -1.0 | 0 | 10 | 0.73 | -2 | 1.1 | 1.9 | 7% | i
COc1ccc(C(C)(C)C)cc1NC(=O)COC(=O)c1cc(SC)ccc1Cl
    -7.0 | -10 | 1 | 0.69 | 2 | 8.5 | -1.2 | -6% | i
CCOc1cc(C(=O)Nc2ccc(NC(C)=O)cc2)ccc1OCC(=O)N1CCCCC1
    1.6 | -5 | -3 | 0.66 | 2 | -2.9 | -1.0 | . | i
O=C(NCc1cccnc1)/C(=N\O)c1ccccc1
    . | 9 | . | . | . | . | -4.0 | 1% | .
CC(C)(C)OC(=O)C(Cc1ccc(OC(C)(C)C)cc1)NC(=O)CNC(=O)CNC(=O)OCc1ccccc1 (centres undefined)
    2.1 | 0 | -2 | 0.65 | 7 | -9.4 | -1.9 | . | i
CCCCNC(=O)c1ccc2c(c1)N(CC)C(=O)c1ccccc1S2(=O)=O
    -9.1 | -51 | 3 | 0.81 | -7 | 1.5 | 1.2 | ? | i

Structural class, the entries above with a Cl atom
Every second line gives: MLL AF4-AF9 inh | ALR H2O2 inh | rRNA inh HTS | E coli growth | rRNA inh HTS OD600 | rRNA inh HTS RFP | HNF4A DNA FP | Vif TR-FRET | FGF22 binding
CC1(C)OC(=O)C2=C(C[C@@H](C3CCCCC3)O[C@H]2c2ccc(Cl)cc2)O1
    -6.4 | . | . | . | . | . | -3.2 | . | i
NC(=O)c1cc([N+](=O)[O-])c(Cl)cc1NCc1ccncc1
    7.5 | -16 | 5 | 0.69 | 7 | 1.6 | -3.4 | . | i
CCCNC(=O)C[C@H]1CC[C@@H]2[C@H](COc3ccc(NC(=O)c4cccc(Cl)c4)cc3C(=O)N2C)O1
    -0.2 | . | -2 | . | 3 | 0.4 | . | . | i
CN(C)CCOC(c1ccc(Cl)cc1)c1ccccn1 (centres undefined)
    -1.4&-1.3 | 7 | . | . | . | . | 1.4&2.5 | -4% | i
COC(=O)[C@]12CCCCC=C1N(Cc1ccc(Cl)cc1Cl)C(=O)[C@H](CC(=O)N1CCCCC1)C2
    3.1 | . | -3 | . | -6 | -0.4 | -0.3 | . | i
Cc1cccc(C(=O)NNC(=O)CCC(=O)Nc2cccc(Cl)c2C)c1
    . | -7 | . | 0.71 | . | . | 1.6 | . | .
COc1ccc(C(C)(C)C)cc1NC(=O)COC(=O)c1cc(SC)ccc1Cl
    -7.0 | -10 | 1 | 0.69 | 2 | 8.5 | -1.2 | -6% | i

Bioassay records deposited in PubChem BioAssay by several laboratories.

An excerpt; rates above refer to the full screens.
